Screening results: PubChem, Broad Institute
Vaccinia inh = blocks a specific stage of Vaccinia orthopoxvirus infection; 89,000 tested, 0.01% active; activity change (mCherry), % (concentration not given with the values); Vaccinia-infected cells, mCherry/Venus stage reporter fluorescence; stronger effect = lower value; some inactives read as strong as hits;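 active = mCherry past -33% and 40 or more points under the early reporter, replicates agreeing; inconclusive = past -33% without that gap or agreement; tested in A549 cells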;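 note: scaled between vehicle wells and reference inhibitor wells; 23 nL library stock went into each well; one replicate is shown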
Vaccinia inh Venus = further read-out of Vaccinia inh, marked with its call; activity change (Venus), %; measured here: Venus reporter, other viral stage;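 negative = less Venus signal; first of two replicates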
The depositor's hits bear a star; u = inconclusive; x = not tested or not shown. These rows are one share of the data; count on the stated rates, not on these rows.

SMILES | Vaccinia inh | Vaccinia inh Venus
COc1ccccc1-c1ccc2c(c1)O[C@H](CN(C)C)[C@@H](C)CN([C@@H](C)CO)S2(=O)=O | -5 | -9
CC(C)NC(=O)Nc1ccc2c(c1)C(=O)N(C)[C@@H]1CC[C@@H](CC(=O)NCc3ccc(F)cc3)O[C@H]1CO2 | 3 | 1
C[C@@H]1CN([C@@H](C)CO)C(=O)Cc2cc(NS(=O)(=O)c3ccc(Cl)cc3)ccc2O[C@H]1CN(C)C(=O)NC1CCCCC1 | -27 | -20
C/C=C/c1cccc(-c2nc(C(=O)NCc3ccc(OC)cc3)cc3c2[C@@H](CCO)N([S@](=O)C(C)(C)C)C3)c1 | 0 | 12
C[C@H](CO)N1C[C@H](C)[C@H](CN(C)S(=O)(=O)c2ccc(Cl)cc2)OCCCC[C@H](C)Oc2ccc(NC(=O)CCC(F)(F)F)cc2C1=O | u | x
O=C(N[C@@H]1C=C[C@H](CC(=O)N2CCOCC2)O[C@H]1CO)c1ccccn1 | 0 | -4
CC(C)NC(=O)N(C)C[C@H]1Oc2ccc(NC(=O)Cn3cnnn3)cc2CC(=O)N([C@H](C)CO)C[C@@H]1C | 14 | 6
CCCN1C[C@@H](C)[C@H](OC)CN(C)C(=O)c2cc(NS(=O)(=O)c3cn(C)cn3)ccc2OC[C@@H]1C | 11 | 7
C[C@H]1CN([C@@H](C)CO)S(=O)(=O)c2ccc(-c3ccccc3F)cc2O[C@@H]1CN(C)Cc1ccncc1 | u | x
C[C@H]1CN([C@@H](C)CO)C(=O)c2cccc(NS(C)(=O)=O)c2O[C@H]1CN(C)Cc1ccc2c(c1)OCO2 | 6 | 1

Quoted from the listing.
CC(C)NC(=O)Nc1ccc2c(c1)C(=O)N(C)[C@@H]1CC[C@@H](CC(=O)NCc3ccc(F)cc3)O[C@H]1CO2 in Vaccinia inh = 3
O=C(N[C@@H]1C=C[C@H](CC(=O)N2CCOCC2)O[C@H]1CO)c1ccccn1 in Vaccinia inh Venus = -4
C/C=C/c1cccc(-c2nc(C(=O)NCc3ccc(OC)cc3)cc3c2[C@@H](CCO)N([S@](=O)C(C)(C)C)C3)c1 in Vaccinia inh = 0
C[C@H]1CN([C@@H](C)CO)C(=O)c2cccc(NS(C)(=O)=O)c2O[C@H]1CN(C)Cc1ccc2c(c1)OCO2 in Vaccinia inh Venus = 1
CCCN1C[C@@H](C)[C@H](OC)CN(C)C(=O)c2cc(NS(=O)(=O)c3cn(C)cn3)ccc2OC[C@@H]1C in Vaccinia inh = 11

Next section
SMILES | Vaccinia inh | Vaccinia inh Venus
CCC(=O)N1C[C@@H](C)[C@@H](OC)CN(C)C(=O)c2ccc(NC(=O)c3ccccc3)cc2OC[C@H]1C | 1 | 11
CC(C)=CCN[C@H](CO)c1ccccc1 | 12 | 11
CC=Cc1ccc2n(c1=O)C[C@H]1[C@H](CO)[C@@H](C(=O)N(C)C)N(CCC)[C@@H]21 (mixture of isomers) | -1 | 0
O=C(Nc1cccc(F)c1)N[C@H]1CC[C@@H](CCn2cc(Cc3ccccc3)nn2)O[C@H]1CO | -11 | -5
C[C@H](CO)N1C[C@H](C)[C@H](CN(C)S(=O)(=O)c2ccc(F)cc2)Oc2ncc(C#Cc3ccc(C(F)(F)F)cc3)cc2C1=O | -24 | -21
Cc1noc(C)c1S(=O)(=O)Nc1ccc2c(c1)C(=O)N([C@H](C)CO)C[C@@H](C)[C@H](CN(C)Cc1ccncc1)OCCCC[C@@H](C)O2 | 0 | 5
CCNC(=O)C[C@@H]1C=C[C@@H](NC(=O)C2CC2)[C@H](CO)O1 | 16 | 13
COc1ccc(NC(=O)N(C)C[C@@H]2OCc3ccccc3-c3c(n(C)c4ccccc34)C(=O)N([C@H](C)CO)C[C@@H]2C)c(OC)c1 | u | x
C[C@H]1CCCCO[C@H](CN(C)C(=O)c2ccncc2)[C@@H](C)CN([C@@H](C)CO)C(=O)c2cc(NS(=O)(=O)c3cccs3)ccc2O1 | -6 | -6
O=C(c1cccc(F)c1)N1CC(=O)N2[C@H](CO)[C@H](c3ccc(C4=CCCC4)cc3)[C@@H]2C1 | 2 | 9
C[C@@H]1CN([C@@H](C)CO)C(=O)c2cc(NC(=O)Nc3cccc4ccccc34)ccc2O[C@@H](C)CCCCO[C@H]1CN(C)C(=O)Nc1ccc2c(c1)OCO2 | 21 | 12
COc1ccc(C#Cc2ccc([C@@H]3[C@H]4CN(C(=O)Nc5ccc(F)cc5)CCCCN4[C@H]3CO)cc2)cc1 | u | x
C[C@@H](NC(=O)C[C@H]1CC[C@H]2[C@@H](COC[C@H](O)CN2Cc2cc(F)ccc2F)O1)c1ccccc1 | 2 | -5
CCN1[C@H](C(=O)N(C)C)[C@@H](CO)[C@@H]2Cn3c(ccc(C4=CCCCC4)c3=O)[C@@H]21 | 17 | 7
O=C(C[C@H]1CC[C@H](NC(=O)CC2CC2)[C@H](CO)O1)NCc1ccc(-c2ccccc2)cc1 | -1 | -1
C[C@H]1CN([C@@H](C)CO)C(=O)c2cc(-c3cccc(C#N)c3)cnc2O[C@H]1CN(C)C(=O)C1CCC1 | 21 | 3
CO[C@H]1CN(C)C(=O)c2cc(NC(=O)c3ccc(F)cc3)ccc2OC[C@H](C)N(C(=O)CN(C)C)C[C@H]1C | -5 | -4
O=C(NCC[C@H]1CC[C@@H](NS(=O)(=O)c2cccc(Cl)c2)[C@H](CO)O1)c1cnccn1 | -2 | 1
Cc1noc(C)c1S(=O)(=O)N(C)C[C@@H]1Oc2c(NS(=O)(=O)c3cn(C)cn3)cccc2C(=O)N([C@H](C)CO)C[C@H]1C | 12 | 7
Cc1noc(C)c1S(=O)(=O)N(C)C[C@H]1OCCCC[C@@H](C)Oc2ccc(NC(=O)CCCN(C)C)cc2C(=O)N([C@@H](C)CO)C[C@H]1C | 20 | 8
Cc1noc(C)c1NC(=O)Nc1ccc2c(c1)C(=O)N([C@@H](C)CO)C[C@@H](C)[C@H](CN(C)Cc1ccc(-c3ccccc3)cc1)O2 | -1 | -2
O=C(C1=C[C@@H](c2ccc(C(F)(F)F)cc2)C[C@@H](OCCCCO)O1)N1CCOCC1 | 11 | -1
C[C@@H]1CCCCO[C@H](CN(C)C(=O)Cc2ccccc2)[C@@H](C)CN([C@@H](C)CO)C(=O)c2cc(NC(=O)c3ccccc3)ccc2O1 | u | x
C[C@@H]1CCCCO[C@@H](CN(C)S(=O)(=O)c2ccc(Cl)cc2)[C@@H](C)CN([C@H](C)CO)C(=O)c2cc(NC(=O)Nc3ccc(F)cc3)ccc2O1 | 6 | -7
Cc1noc(C)c1NC(=O)Nc1ccc2c(c1)C(=O)N([C@H](C)CO)C[C@@H](C)[C@H](CN(C)C(=O)c1ccccc1)OCCCC[C@H](C)O2 | 20 | 10
CCCC#Cc1ccc2c(c1)[C@H]1[C@H](CCN1S(=O)(=O)c1cccc(F)c1)[C@H](CO)N2C | 1 | 5
C[C@H](CO)N1C[C@H](C)[C@@H](CN(C)C(=O)NC2CCCCC2)Oc2ccc(NC(=O)Cc3ccccc3)cc2C1=O | 14 | 10
COCC#Cc1ccc([C@H]2[C@H](CO)N3C(=O)CN(C(=O)C4CCC4)C[C@@H]23)cc1 | 9 | 13
C[C@@H]1CN([C@H](C)CO)C(=O)Cc2cc(NC(=O)C3CC3)ccc2O[C@H]1CN(C)Cc1ccncc1 | 4 | 1
O=C(C[C@H]1CC[C@H]2[C@@H](COC[C@@H](O)CN2C(=O)c2ccc3c(c2)OCO3)O1)NCCN1CCCC1 | 21 | 7
O=C(C1CC1)N1CC(=O)N2[C@H](CO)[C@@H](c3ccc(-c4ccccc4F)cc3)[C@H]2C1 | -27 | -19
O=C(N[C@H]1C=C[C@@H](CC(=O)N2CCCCC2)O[C@@H]1CO)c1ccccn1 | -5 | 8
Cc1cccc(-c2ccc([C@@H]3[C@@H](CO)N4CCCCN(S(=O)(=O)c5ccccc5C)C[C@H]34)cc2)c1 | -26 | -15
O=C(C1CC1)N1C[C@H]2[C@@H](c3ccccc31)[C@H](CO)N2C(=O)Cc1ccccn1 | u | x
COc1ccc(CN(C)C[C@H]2OCCCC[C@@H](C)Oc3ccc(NS(=O)(=O)c4cn(C)cn4)cc3C(=O)N([C@H](C)CO)C[C@H]2C)cc1 | 16 | 12
COc1ccc(NC(=O)N(C)C[C@@H]2OCCCC[C@H](C)Oc3ccc(NC(=O)NC4CCCCC4)cc3C(=O)N([C@H](C)CO)C[C@@H]2C)cc1 | 8 | 2
C[C@@H]1CCCCO[C@H](CN(C)CC2CC2)[C@@H](C)CN([C@@H](C)CO)C(=O)c2cc(NS(=O)(=O)c3ccc(Cl)cc3)ccc2O1 | -28 | -25
N#C[C@H]1[C@@H](c2ccc(C3=CCCC3)cc2)[C@H](CO)N1C(=O)C1CCC1 | 17 | 18
C[C@H](CO)N1C[C@H](C)[C@H](CN(C)S(=O)(=O)c2cn(C)cn2)OCCCC[C@H](C)Oc2ccc(NC(=O)CCCN(C)C)cc2C1=O | 17 | 16
O=S(=O)(N[C@@H]1CC[C@@H](CCn2cc(-c3ccc(F)cc3)nn2)O[C@H]1CO)c1ccccc1F | 4 | -1
CCCC#Cc1ccc([C@@H]2[C@@H](CO)N3C(=O)CN(C(=O)CN4CCOCC4)C[C@@H]23)cc1 | -9 | -4
CCC(=O)N(C)C[C@H]1Oc2cc(-c3ccc(C)cc3)ccc2S(=O)(=O)N([C@@H](C)CO)C[C@@H]1C | -21 | -20
C[C@@H]1CN([C@H](C)CO)C(=O)Cc2cc(NC(=O)Nc3ccccc3)ccc2O[C@@H]1CN(C)C(=O)Nc1ccccc1 | 1 | -1
CCNC(=O)[C@@H]1[C@@H](CO)[C@@H]2Cn3c(ccc(-c4ccccc4F)c3=O)[C@H]1N2CC | 12 | 11
Cc1noc(C)c1S(=O)(=O)N(C)C[C@@H]1OCc2ccccc2-c2ccccc2C(=O)N([C@@H](C)CO)C[C@H]1C | 14 | 1
C[C@@H]1CN([C@@H](C)CO)C(=O)c2cc(N(C)C)ccc2O[C@H]1CN(C)Cc1ccc(C(F)(F)F)cc1 | 3 | 9
O=C(Nc1ccc(Cl)cc1)N[C@H]1CC[C@@H](CCNC(=O)c2cc(Cl)cc(Cl)c2)O[C@H]1CO | -18 | -22
C[C@@H]1CN([C@H](C)CO)C(=O)c2cc(NS(=O)(=O)c3ccc(Cl)cc3)ccc2O[C@@H]1CN(C)Cc1ccc(C(=O)Nc2ccccc2N)cc1 | -19 | -13
Cc1ccc(-c2ccc3c(c2)O[C@@H](CN(C)C)[C@@H](C)CN([C@@H](C)CO)S3(=O)=O)cc1 | -19 | -18
COc1cccc(NC(=O)N2C[C@H](O)COC[C@H]3O[C@H](CC(=O)NCc4ccccc4F)CC[C@@H]32)c1 | 6 | 1
More structures:
SMILES | Vaccinia inh | Vaccinia inh Venus
COc1cccc(NC(=O)N[C@@H]2C=C[C@H](CC(=O)Nc3ccc(-c4ccccc4)cc3)O[C@H]2CO)c1 | 6 | 3
C[C@@H]1CN([C@@H](C)CO)C(=O)Cc2cc(NC(=O)Nc3ccccc3)ccc2O[C@@H]1CN(C)Cc1ccccc1 | -22 | -5
C[C@@H]1CN([C@H](C)CO)C(=O)c2cc(NS(=O)(=O)c3ccc(F)cc3)ccc2O[C@@H](C)CCCCO[C@@H]1CN(C)CC1CCCCC1 | u | x
COc1ccc(C(=O)N2C[C@H]3[C@@H](c4ccccc42)[C@@H](CO)N3C(=O)c2cccc(F)c2)cc1 | 3 | 0
COc1ccc(CN(C)C[C@H]2Oc3ccc(NS(=O)(=O)c4ccc(OC)cc4)cc3CC(=O)N([C@H](C)CO)C[C@@H]2C)cc1 | -28 | -21
C[C@H](CO)N1C[C@H](C)[C@@H](CN(C)C(=O)Nc2ccnc(N3CCOCC3)c2)OCc2ccccc2-c2ccccc2C1=O | 8 | 5
COc1cccc(NC(=O)N2CC3(C2)[C@@H](c2ccccc2)[C@H](CO)N3C(C)=O)c1 | -1 | 1
Cc1ccccc1S(=O)(=O)N1[C@H](C#N)[C@@H](c2ccccc2)[C@@H]1CO | 3 | 2
CNC[C@H]1Oc2cc(C#Cc3ccccc3)ccc2S(=O)(=O)N([C@H](C)CO)C[C@@H]1C | u | x
COc1ccc(S(=O)(=O)N(C)C[C@H]2Oc3ccc(NC(=O)Cc4cn(C)c5ccccc45)cc3C(=O)N([C@@H](C)CO)C[C@@H]2C)cc1 | -5 | -6
CO[C@@H]1CN(C)C(=O)c2ccc(NC(=O)NC(C)C)cc2OC[C@H](C)N(Cc2ccc(-c3ccccn3)cc2)C[C@@H]1C | 0 | 6
COc1ccc2c3c([nH]c2c1)[C@H](CO)N(C(=O)CN(C)C)CC31CCN(C(=O)c2ccncc2)CC1 | 24 | 7

Structures listed so far that contain a CF3 group:
SMILES | Vaccinia inh | Vaccinia inh Venus
C[C@H](CO)N1C[C@H](C)[C@H](CN(C)S(=O)(=O)c2ccc(Cl)cc2)OCCCC[C@H](C)Oc2ccc(NC(=O)CCC(F)(F)F)cc2C1=O | u | x
C[C@H](CO)N1C[C@H](C)[C@H](CN(C)S(=O)(=O)c2ccc(F)cc2)Oc2ncc(C#Cc3ccc(C(F)(F)F)cc3)cc2C1=O | -24 | -21
O=C(C1=C[C@@H](c2ccc(C(F)(F)F)cc2)C[C@@H](OCCCCO)O1)N1CCOCC1 | 11 | -1
C[C@@H]1CN([C@@H](C)CO)C(=O)c2cc(N(C)C)ccc2O[C@H]1CN(C)Cc1ccc(C(F)(F)F)cc1 | 3 | 9
